Bioassay records from PubChem.
H5N1 antiviral = MDCK cell protection from H5N1 avian flu. cytopathic effect, luminescence, 72 h; active compounds read high; no value below 0 was filed and about half of the inactive calls have no number; reference of the scale not given here. 0.07% of 96,000 active. inhibition, % at 50 µM; in the data active = inhibition above about 25%
* marks the source's active call; other numbers are inactive results. Not all compounds are listed, so the mix of outcomes need not match the whole.

`CCOC(=O)c1cnc(SCC(=O)Nc2ccc(NC(=O)CC)c(OC)c2)nc1N` gave H5N1 antiviral inactive.
Cc1cc(=O)oc(C)c1C(=O)Nc1cccc2nonc12 was read as H5N1 antiviral inactive.
For Cc1cccc(OCCCCc2c(C)n[nH]c2C)c1C the results were H5N1 antiviral inactive.
Screening COc1cccc(C2(O)CCN(C(=O)Cc3cccnc3)CC2)c1 returned H5N1 antiviral inactive.
`Nc1nnc(C2CCCC2)s1` gave H5N1 antiviral 0.3.
`O=C1CC(c2cccc(F)c2)SC(N(c2ccccc2)c2ccccc2)=N1` (stereo unspecified) gave H5N1 antiviral 0.3.
For N#CC1=C(N)Oc2c(c(=O)oc3ccccc23)C1c1cccnc1 (stereo unspecified) the results were H5N1 antiviral 0.1.
`COC(=O)c1ccccc1S(=O)(=O)Nc1ccc2cn[nH]c2c1` gave H5N1 antiviral 0.6.
Screening Cc1ccccc1NC(=O)Cn1cnc2c1c(=O)n(C)c(=O)n2C returned H5N1 antiviral 0.6.
`O=C(O)CC1=C(O)C(=O)N(c2ccccc2)C1c1ccc(Cl)cc1` (stereo unspecified) gave H5N1 antiviral 0.8.
For O=C(Oc1cccc(/C=N/Nc2nc(N3CCOCC3)nc(N3CCOCC3)n2)c1)c1ccco1 the results were H5N1 antiviral 2.6.
COc1ccc(CN(C2CCCC2)S(=O)(=O)c2ccc(-n3cnnn3)cc2)cc1OC was read as H5N1 antiviral inactive.
For FC(F)(F)c1nnc(-c2ccccc2)nc1N1CCOCC1 the results were H5N1 antiviral 1.4.
`O=C(OCn1nnc2ccccc2c1=O)c1ccc2c(=O)n3c(nc2c1)CCC3` gave H5N1 antiviral 0.0.
For Cc1cc(C)n(CC(=O)NC2CCCCC2)n1 the results were H5N1 antiviral 0.6.
CCC(C)[C@H](NC(=O)Nc1ccc2c(c1)OCCO2)C(=O)O (stereo partly specified) was read as H5N1 antiviral inactive.
Cc1cc(NS(=O)(=O)c2ccc(Nc3nc(-c4sc(N)nc4C)cs3)cc2)no1 was read as H5N1 antiviral 0.5.
`COc1cccc(CN(Cc2cccnc2)S(=O)(=O)c2ccc(-n3cnnn3)c(C)c2)c1` gave H5N1 antiviral 0.2.
Cc1ccc(S(=O)(=O)N(C)c2ccc(C(=O)N3CCN(Cc4ccc5c(c4)OCO5)CC3)cc2)cc1 was read as H5N1 antiviral 4.2.
CCCc1cc(Nc2cccc(OCC)c2)n2ncnc2n1 was read as H5N1 antiviral inactive.
`O=C(CNC(=O)c1ccco1)OCC(=O)c1ccc2ccccc2c1` gave H5N1 antiviral inactive.
`Cc1cc(C(=O)OCC(=O)NCCCN2CCCC2=O)c2ccccc2n1` gave H5N1 antiviral inactive.
Screening Clc1ccc(Oc2cnc3ccccc3n2)cc1 returned H5N1 antiviral inactive.
CCOc1ccc(NC(=O)N(CCC(C)C)C2CCN(C(C)=O)CC2)cc1 was read as H5N1 antiviral 0.7.
`COc1ccc(OC(=O)c2cccc(S(=O)(=O)N3CCCC3)c2)cc1` gave H5N1 antiviral inactive.
`C(=C\c1ccco1)/C=N/n1cnnc1` gave H5N1 antiviral 4.3.
`COC(=O)c1ccc(C(=O)OC)c(NC(=O)CCC(=O)O)c1` gave H5N1 antiviral inactive.
CCOc1cc2c3c(c1)C1(Nc4ccccc4S1)C(=O)N3C(C)(C)CC2C (stereo unspecified) was read as H5N1 antiviral 2.9.
`COc1ccc(C(=O)CSc2nc(SC)ns2)cc1OC` gave H5N1 antiviral 0.0.
For O=C(CSc1nnc(-c2ccc(Br)cc2)n1C1CCCCC1)N1CCCC1 the results were H5N1 antiviral 2.1.
Cc1ccc(N2C(=O)C3Sc4[nH]c(=O)sc4C(c4ccccc4)C3C2=O)cc1 (stereo unspecified) was read as H5N1 antiviral inactive.
For CCOc1ccc(NC(=O)C2=C(C)C(=O)OC23CCC(C)CC3)cc1 (stereo unspecified) the results were H5N1 antiviral 1.3.
Screening c1ccc2c(c1)ncn2Cc1nnc2sc(-c3ccc4c(c3)OCO4)nn12 returned H5N1 antiviral 3.1.
`O=C(Nc1cc(C(F)(F)F)ccc1N1CCCCC1)c1ccc(Br)o1` gave H5N1 antiviral 0.2.
Screening COC(=O)Cc1c[nH]c2ccc(OCC(O)CNC(C)C)cc12 (stereo unspecified) returned H5N1 antiviral 0.1.
Screening Cc1ccccc1-c1nnc(SCc2ccccc2)o1 returned H5N1 antiviral 1.5.
For CC(C)c1ccc(OCc2ccc(C(=O)N3CCN(c4ccccn4)CC3)cc2)cc1 the results were H5N1 antiviral 0.7.
`CCOC(=O)c1cnc(SCC(=O)N2CCN(C(=O)c3ccco3)CC2)nc1N` gave H5N1 antiviral 1.4.
Cc1ccc(C)c(S(=O)(=O)N2CCN(CC(=O)N3CCc4ccccc4C3)CC2)c1 was read as H5N1 antiviral inactive.
Screening O=C(Cn1c(C2CC2)nc2ccccc2c1=O)Nc1ccc(Br)cc1 returned H5N1 antiviral inactive.
Screening CC(C)CCn1c(=O)c2ccccc2c2ccccc2c1=O returned H5N1 antiviral inactive.
O=C(Nc1ccc2oc(-c3ccccc3F)nc2c1)c1ccc2c(c1)OCCO2 was read as H5N1 antiviral inactive.
For CC1CC1C(=O)OCc1cc(=O)n2cc(Br)ccc2n1 (stereo unspecified) the results were H5N1 antiviral 0.4.
COc1cc(C2c3c(oc4ccccc4c3=O)C(=O)N2Cc2cccnc2)cc(OC)c1OC (stereo unspecified) was read as H5N1 antiviral 1.2.
For Cc1cc(N2CCOCC2)c2c(N)c(C)cc(C)c2n1 the results were H5N1 antiviral 0.2.
For COCCCNCCOCCOc1c(OC)cccc1OC the results were H5N1 antiviral inactive.
For Brc1ccccc1-c1nc(-c2ccccc2)no1 the results were H5N1 antiviral inactive.
Screening CC(C)(Oc1ccc(Cl)cc1)C(=O)Nc1cccnc1 returned H5N1 antiviral 0.1.
For O=C1CC(N2CCOCC2)C(=O)N1CCc1ccccc1 (stereo unspecified) the results were H5N1 antiviral 0.8.
Screening Cc1cccc(OCc2nc(C#N)c(N3CC(C)CC(C)C3)o2)c1 (stereo unspecified) returned H5N1 antiviral 1.3.
Screening Cc1nn(-c2ccccc2)c(C)c1C(=O)OCC(=O)Nc1ccc2c(c1)OCO2 returned H5N1 antiviral inactive.
For COc1cc2c(cc1OC)-c1nnc(C)n1C(C)(C)C2 the results were H5N1 antiviral 1.4.
`COc1cccc(CCC(=O)O)c1OC` gave H5N1 antiviral inactive.
`Cc1cc(C)nc(-n2c(C)nc3cc(Cl)ccc3c2=O)c1` gave H5N1 antiviral inactive.
For O=C(CSc1nc2c(c(=O)n1-c1ccc(Cl)cc1)SCC2)Nc1nccs1 the results were H5N1 antiviral 0.2.
CNC(=S)N1N=C(c2ccc(C)cc2)CC1c1ccc(Br)cc1 (stereo unspecified) was read as H5N1 antiviral 0.1.
`CCOCCN(C=O)c1cccc(OC)c1` gave H5N1 antiviral inactive.
`NC(=O)CSCc1ccc(Br)cc1` gave H5N1 antiviral inactive.
For N/C(=N\c1nc2c(c(=O)[nH]1)CCC2)Nc1cccc2ccccc12 the results were H5N1 antiviral inactive.
Screening O=C(CSc1nnnn1-c1ccc2c(c1)CCC2)Nc1ccc2c(c1)OCCO2 returned H5N1 antiviral inactive.
CCn1c(=O)cc(SCC(=O)N2CCN(C3CCCCC3)CC2)c2ccccc21 was read as H5N1 antiviral 2.6.
Screening O=S(=O)(c1ccc(Br)cc1)N1CCN(c2cc(-c3ccccc3)nc3ncnn23)CC1 returned H5N1 antiviral 3.3.
CCN=c1scc(C)n1/N=C/c1ccsc1 was read as H5N1 antiviral inactive.
`O=C(NCc1ccccc1)C12CN(Cc3ccccc3)CC1C(c1ccc([N+](=O)[O-])cc1)=NO2` (stereo unspecified) gave H5N1 antiviral inactive.
`c1ccc(Nc2ncnc3c2oc2ccccc23)cc1` gave H5N1 antiviral inactive.
CC(C)CCOC(=O)/C(=C/c1ccco1)NC(=O)/C=C/c1ccccc1 was read as H5N1 antiviral inactive.
Screening COC(=O)c1c(O)c2c([nH]c1=O)CCCC2 returned H5N1 antiviral 0.5.
`Cc1ccc(N=C2NC(=O)C(CC(=O)O)S2)cc1` (stereo unspecified) gave H5N1 antiviral inactive.
CCOC(=O)C1CCCN(CC(=O)/C=C2/N(C)c3ccccc3C2(C)C)C1 (stereo unspecified) was read as H5N1 antiviral inactive.
CCOC(=O)c1ccc(NC(=O)N2CCN(CCc3ccccc3)CC2)cc1 was read as H5N1 antiviral inactive.
Screening O=C(Nc1nnc(C2CC2)s1)c1ccccn1 returned H5N1 antiviral 3.5.
Screening CC1(C)CC(=O)c2cc(C(=O)N3CCCC(C)(C)C3)c(=O)n(-c3ccccc3)c2C1 returned H5N1 antiviral inactive.
For O=C(Cc1cccs1)Nc1ccc(NC(=O)c2ccco2)cc1 the results were H5N1 antiviral inactive.
C=CCn1c(O)c(C(CC)=Nc2ccc(N(CC)CC)cc2)c(=O)[nH]c1=O was read as H5N1 antiviral 0.7.
COc1ccc(NC(=O)CN2C(=O)c3cccc4cccc2c34)cc1OC was read as H5N1 antiviral inactive.
For Cn1c(SCC(=O)NNC(=O)Cc2ccccc2)nnc1-c1ccc(Cl)cc1 the results were H5N1 antiviral 0.3.
`CCOc1ccc(CCNC(=O)CCc2c(C)nc3ncnn3c2C)cc1OCC` gave H5N1 antiviral inactive.
`O=C(NC1CCCCC1)n1c(=O)oc2ccc(Cl)cc21` gave H5N1 antiviral inactive.
`CN1CCN(CC(=O)N2c3ccccc3C(C)(c3ccccc3)CC2(C)C)CC1` (stereo unspecified) gave H5N1 antiviral inactive.
`O=C(CSc1cccc[n+]1[O-])c1cc2ccccc2o1` gave H5N1 antiviral inactive.
CCOc1ccccc1NC(=O)N1CCC(NC(=O)c2cccc(C)c2)CC1 was read as H5N1 antiviral inactive.
Screening O=C(Cn1cnc2c(nnn2Cc2ccc(Cl)cc2)c1=O)NCC1CCCO1 (stereo unspecified) returned H5N1 antiviral 0.4.
Screening COc1ccccc1-n1c(C)nnc1SCC(=O)Nc1cc(C)cc(C)c1 returned H5N1 antiviral 1.6.
CCOC(=O)Cn1cnc([N+](=O)[O-])n1 was read as H5N1 antiviral 0.2.
For Cc1cccc(OCC(=O)N/N=C\C=C\c2ccc3c(c2)OCO3)c1C the results were H5N1 antiviral inactive.
CCCCN(CC)C(=O)Cn1c(=O)sc2ccccc21 was read as H5N1 antiviral 0.8.
Screening Cc1ccc(N2CC(C(=O)Nc3ccc4c(c3)OCO4)CC2=O)cc1 (stereo unspecified) returned H5N1 antiviral inactive.
CCN(CC)CC(=O)Nc1c(C)cc(C(C)(C)C)cc1C was read as H5N1 antiviral 1.9.
COc1ccc(-c2nnc(SCC(=O)Nc3cc(F)ccc3C)o2)cc1 was read as H5N1 antiviral 2.2.
Screening CC(=O)NC(CC(=O)Nc1ccc(S(=O)(=O)N2CCCCC2)cc1)c1ccccc1 (stereo unspecified) returned H5N1 antiviral 0.4.
COc1cc(/C=C2/C(=N)N3OC(C)=CC3=NC2=O)ccc1OCCOc1ccc(C)cc1 was read as H5N1 antiviral inactive.
Cc1ccc2nc(NC(=O)c3ccc(Cl)s3)sc2c1 was read as H5N1 antiviral inactive.
Screening O=C(O)CCCCCNCc1ccncc1 returned H5N1 antiviral 0.1.
Screening CC1Cc2ccccc2N1C(=O)CSc1nnc(Cn2nnc3ccccc32)n1C (stereo unspecified) returned H5N1 antiviral 0.4.
For Cc1ccc(C(C)C)c(OCc2nnc(SCC(=O)Nc3ncc(C)s3)n2C)c1 the results were H5N1 antiviral inactive.
Screening CC(=O)NC(CCS(C)(=O)=O)C(=O)Nc1ccc(F)cc1Cl (stereo unspecified) returned H5N1 antiviral 0.8.
CCC(C)Nc1c([N+](=O)[O-])cc(C)cc1[N+](=O)[O-] (stereo unspecified) was read as H5N1 antiviral 0.5.
For O=C(CSc1nc2ccccc2s1)Nn1cnnc1 the results were H5N1 antiviral 0.5.
For CCOc1ccccc1C(=O)Nc1nncs1 the results were H5N1 antiviral 0.4.
For CCCn1c(=O)[nH]c(=O)c2c1nc(-c1ccc(OC(F)F)cc1)n2CCN1CCOCC1 the results were H5N1 antiviral inactive.
For N#Cc1sc2nc(-c3ccccc3)cc(-c3ccco3)c2c1N the results were H5N1 antiviral inactive.
`COc1ccccc1Nc1nc(N)nc(CSCCO)n1` gave H5N1 antiviral inactive.
Screening CCOC(=O)Cn1c2c(c(=N)c3c1CCC3)CCC2 returned H5N1 antiviral inactive.
`O=C(CSc1nnc(CN2CCOCC2)n1-c1ccc(Cl)cc1)Nc1ccc2c(c1)OCO2` gave H5N1 antiviral 1.0.
`COc1cccc(C2=NOC(C(=O)Nc3cccc(C(C)=O)c3)C2)c1` (stereo unspecified) gave H5N1 antiviral inactive.
For O=C(CSCc1ccc(F)cc1)NC1CCCC1 the results were H5N1 antiviral 0.9.
`CCS(=O)(=O)c1nc2ccccc2n1Cc1ccccc1Cl` gave H5N1 antiviral inactive.

Ordered by length of the SMILES (rising): 13 of the compounds above
Screening O=C(O)CCCCCNCc1ccncc1 returned H5N1 antiviral 0.1.
For CCOc1ccccc1C(=O)Nc1nncs1 the results were H5N1 antiviral 0.4.
For O=C(CSCc1ccc(F)cc1)NC1CCCC1 the results were H5N1 antiviral 0.9.
`COc1ccccc1Nc1nc(N)nc(CSCCO)n1` gave H5N1 antiviral inactive.
Cc1ccc2nc(NC(=O)c3ccc(Cl)s3)sc2c1 was read as H5N1 antiviral inactive.
`CCS(=O)(=O)c1nc2ccccc2n1Cc1ccccc1Cl` gave H5N1 antiviral inactive.
For N#Cc1sc2nc(-c3ccccc3)cc(-c3ccco3)c2c1N the results were H5N1 antiviral inactive.
Screening CC(=O)NC(CCS(C)(=O)=O)C(=O)Nc1ccc(F)cc1Cl (stereo unspecified) returned H5N1 antiviral 0.8.
CCC(C)Nc1c([N+](=O)[O-])cc(C)cc1[N+](=O)[O-] (stereo unspecified) was read as H5N1 antiviral 0.5.
Screening CC1Cc2ccccc2N1C(=O)CSc1nnc(Cn2nnc3ccccc32)n1C (stereo unspecified) returned H5N1 antiviral 0.4.
For Cc1ccc(C(C)C)c(OCc2nnc(SCC(=O)Nc3ncc(C)s3)n2C)c1 the results were H5N1 antiviral inactive.
`O=C(CSc1nnc(CN2CCOCC2)n1-c1ccc(Cl)cc1)Nc1ccc2c(c1)OCO2` gave H5N1 antiviral 1.0.
For CCCn1c(=O)[nH]c(=O)c2c1nc(-c1ccc(OC(F)F)cc1)n2CCN1CCOCC1 the results were H5N1 antiviral inactive.
